# From PubChem BioAssay
# VDR inh – Inhibitors of the vitamin D receptor (VDR): qHTS | Vitamin D3 receptor (Homo sapiens), P11473 | VDR-SRC2-3 peptide fluorescence polarization, 2 h | Potency, µM, inactives show max response, negative = inhibition, most hits filed as inhibitors | 0.93% of 400,000 active | AID 504847, 2011; active = well fitted inhibition curve with a large enough effect; inconclusive = small, poorly fitted or top-dose-only effect, or another doubt; inactive = no such curve, though single readings can be large or run the other way; also: series mostly up to about 120 µM
# Target sequence (P11473 whole entry, looked up): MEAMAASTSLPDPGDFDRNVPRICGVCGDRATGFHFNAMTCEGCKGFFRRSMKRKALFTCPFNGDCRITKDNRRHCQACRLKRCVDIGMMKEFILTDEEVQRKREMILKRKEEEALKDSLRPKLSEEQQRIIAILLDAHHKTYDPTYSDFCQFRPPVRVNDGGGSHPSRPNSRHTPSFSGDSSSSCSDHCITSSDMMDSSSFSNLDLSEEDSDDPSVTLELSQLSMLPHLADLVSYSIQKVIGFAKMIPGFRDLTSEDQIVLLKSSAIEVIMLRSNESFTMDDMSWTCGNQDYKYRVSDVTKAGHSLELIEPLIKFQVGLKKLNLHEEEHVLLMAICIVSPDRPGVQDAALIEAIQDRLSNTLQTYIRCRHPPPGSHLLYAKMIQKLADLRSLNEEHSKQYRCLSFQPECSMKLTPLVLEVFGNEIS
#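 After 23 nl compound addition and a short centrifugation, plates sat for 2 hours at ambient temperature; polarization of fluorescence then indicated loss of VDR binding to peptide SRC2-3.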
# An asterisk follows results filed as active; u = inconclusive; & = joins results of further samples. % is scaled to controls: 0 for no effect and ±100 for the full control effect; potency is read from the fitted curve at half-maximal effect. The list is partial; count on the stated rates, not on these rows.
VDR inh,compound
-2.7%,Cc1ccc(S(=O)(=O)N(C)C)cc1NC(=O)COC(=O)CCC(=O)c1ccc(F)cc1
-2.2%,Cc1cccc(OCC(O)Cn2c(NCCCOC(C)C)nc3c2c(=O)[nH]c(=O)n3C)c1 (stereo not given)
-4.2%,COc1cc(/C=C2\CCOC2=O)cc(OC)c1OC
-10.0%,C/C(=N\Nc1ccccn1)c1ccc(Br)s1
22.4%,COc1ccc(C(=O)Nc2ccc(S(=O)(=O)NC(C)=O)cc2)cc1
-0.8%,COc1cccc(N2CC(NS(=O)(=O)c3ccc4ccccc4c3)CC2=O)c1 (stereo not given)
1.9%,CC1(C)OC(=O)C(=C2CCCN2)C(=O)O1
-16.0%,CCOC(=O)c1cc2c(=O)[nH]ccc2nc1C
-7.0%,Cc1ccc2nc(Nc3ncc4c(n3)CC(C)(C)CC4=O)nc(C)c2c1
-6.6%&4.6%,Cc1ccc(-c2cc(C(=O)NCc3cnn(C)c3C)c3cc(Br)ccc3n2)cc1
5.3%,COCCOC(=O)C1=C(C)NC2=C(C(=O)CC(C)(C)C2)C1c1ccc2c(c1)OCO2 (stereo not given)
-14.4%,O=C(c1cc(C(F)(F)F)cc(C(F)(F)F)c1)N1CCC2(CC1)CCN(c1ccccn1)CC2
-3.1%,COc1ccccc1NS(=O)(=O)c1ccc(C)c(C(=O)NCCCN2CCCC2=O)c1
-6.8%,O=C(Nc1ccc(-n2cnnn2)cc1)C1CCCN1C(=O)NC1CCCCC1 (stereo not given)
4.9%,CCOC(=O)c1nc(C)[nH]c1C(=O)OCC
8.2%,Cc1ccc(CNC(=O)c2cc3ccc4cccnc4c3[nH]2)cc1
3.6%,O=S(=O)(c1cc(Br)ccc1Br)N1CCCCCC1
-4.3%,CC(/C=C/c1ccccc1)=N/NC(=O)c1cccc(Br)c1
12.5%,Cn1c(=O)c2c(ncn2CC(=O)Nc2ccc(Cl)cc2Cl)n(C)c1=O
1.3%,CCOc1cc(N2CCOCC2)c(OCC)cc1NC(=O)COC(=O)C1CCCN1S(=O)(=O)c1ccccc1F (stereo not given)
-9.3%,O=C(NCc1cccs1)C1CCN(S(=O)(=O)c2cccc3nsnc23)CC1
-16.4%,COCCn1c(SCC(=O)c2ccc3c(c2)OCCO3)nnc1-c1ccoc1C
1.2%,O=C(Nc1ccc(Cl)cc1)C1CCC(=O)N1Cc1ccccc1Cl (stereo not given)
-6.7%,O=C(Cc1cccs1)NCCn1ccc2ccccc21
-6.9%,COc1cc(/C=C/C(=O)OCC(=O)N2CCCc3ccccc32)ccc1OCC#N
8.2%,COc1ccc(C2(C)NC(=O)N(CC(=O)c3cc(C)n(C4CC4)c3C)C2=O)cc1 (stereo not given)
-7.6%,CSc1ccccc1OCc1cc(C(=O)NC(C)Cc2cccc(C)n2)no1 (stereo not given)
4.1%,N#Cc1c(NC(=O)CSc2nnc(-c3ccccc3)o2)sc2c1CCCC2
29.5%,CCS(=O)(=O)N1CCc2cc(C(=O)Nc3ccc(C)c(Cl)c3)ccc21
0.0%,Cc1cc(NC(=O)c2cccc(F)c2)no1
-21.5%,COc1ccccc1C1NC=C([N+](=O)[O-])C=C1[N+](=O)[O-] (stereo not given)
-20.0%,COc1ccc(/C(O)=C2/C(=O)C(=O)N(CCN3CCOCC3)C2c2ccccn2)cc1 (stereo not given)
-3.3%,O=c1c2ccccc2oc2ccc(-c3ccc4cc[nH]c4c3)cc12
0.3%,O=C(c1cc2ccccc2s1)N1CCN(c2ccccn2)CC1
-3.7%,CN(C)CCNC(=S)Nc1ccc(Cl)cc1Cl
-5.4%,CCCCN(C(=O)c1ccc(S(=O)(=O)N2CCC(C)CC2)cc1)C1CCS(=O)(=O)C1 (stereo not given)
5.3%,CC1(C)CC(=O)c2c(Cc3ccccc3)n[nH]c2C1
-22.6%,C/C=C(/C)C(=O)O[C@H]1[C@@H](O)c2c(ccc3ccc(=O)oc23)OC1(C)C
-2.1%,C[C@H]1C(=O)N(C)CCN1C(=O)c1cccc(OC2CCN(CC(C)(C)C)CC2)c1
-0.9%,CCn1cc(C(=O)N[C@@H](CCSC)C(=O)NCCCN2CCOCC2)c(=O)c2cc3c(cc21)OCO3
13.7%,Oc1ccccc1-c1nc(NC2CCCC2)c2ccccc2n1
-22.6%,CC1CCN(c2ncnc3nc[nH]c23)CC1
4.7%,Cc1nc(C(C)NC(=O)CCc2nnc(-c3ccsc3)o2)cs1 (stereo not given)
-12.4%,O=C(NC1CCCC1)c1cccc(Cn2cc([N+](=O)[O-])cn2)c1
8.9%,CCN1CCN(c2oc(/C=C/c3ccccc3OC)nc2C#N)CC1
-22.4%,COc1ccccc1NS(=O)(=O)c1cc(NC(=O)C(C)(C)C)ccc1N1CCOCC1
-2.9%,COC(=O)c1c(NC(=O)CN(C)CC(=O)Nc2ccc(C)cc2)sc2c1CCC(C)C2 (stereo not given)
10.8%,COC(=O)C1C(=O)C2=C(CC1C)NC(C)=C(C(=O)OC1CCCCC1)C2c1ccc(N(C)C)cc1 (stereo not given)
u,CCOC(=O)C1=C(C)N=c2s/c(=C/c3cccc([N+](=O)[O-])c3O)c(=O)n2C1c1ccccc1 (stereo not given)
20.8%,O=C(CCNC(=O)c1ccccc1Cl)Nc1nc(-c2ccc3ccccc3c2)cs1
6.9%,COc1cccc2cc(CC(=O)c3ccc(C)cc3C)c(=O)oc12
4.0%,CC(C)NC(=O)C1CC(=O)N(C(C)c2ccccc2)C1 (stereo not given)
-6.1%,NC(=O)[C@@H]1CC2(CC(c3cccc(NC(=O)CC(c4ccccc4)c4ccccc4)c3)=NO2)CN1C(=O)COc1ccc(Cl)cc1 (stereo not given in full)
-17.3%,CCOC(=O)N1CCC(Nc2nc3ccccc3n3nnnc23)CC1
14.6%,CCCCOc1ccc(C(=O)NCCc2sc(-c3cccc(F)c3)nc2C)cc1
-4.6%,CC(Oc1ccccc1)c1ccnn1S(=O)(=O)c1ccccc1 (stereo not given)
-3.2%,COC(=O)c1sc2ccccc2c1NC(=O)c1ccc(S(=O)(=O)N2CCC(C)CC2)cc1
-11.6%,NS(=O)(=O)c1cccc(NC(=O)CN2CCN(Cc3ccc4c(c3)OCO4)CC2)c1
-0.7%,COc1ccc(NC(=O)CC(C)c2ccccc2)cc1S(=O)(=O)N1CCOCC1 (stereo not given)
1.7%,COc1ccccc1C(=O)Nc1ccccc1SC

# Other structures.
VDR inh,compound
-20.3%,CCOc1ccc(-n2nc3cc(C)c(N)cc3n2)cc1
u,COc1cc(/C=C/C(=O)O)cc(S(=O)(=O)N2CCCc3ccccc32)c1OC
-17.5%,NC(=O)COC(=O)c1cccc(S(=O)(=O)N2CCCc3ccccc32)c1
-1.0%,Cc1ccc2[nH]cc(CCNC(=O)/C=C/c3ccco3)c2c1
-14.4%,CCn1c(=O)n(CC(=O)NCC2CCCO2)c(=O)c2c3c(sc21)CCCC3 (stereo not given)
u,Cc1ccccc1OCC(O)Cn1c(=N)n(CCN2CCOCC2)c2ccccc21 (stereo not given)
-6.9%,Fc1cc(Br)ccc1NC(=S)Nc1ccccc1
-4.7%,Cc1c(C(=O)OCC(=O)N(C)c2ccccc2)oc2ccccc12
2.9%,O=C(Cn1ccc([N+](=O)[O-])n1)NCC1CCCO1 (stereo not given)
-20.5%,Cc1cc(C(=O)CCC(=O)NCC2COc3ccccc3O2)c(C)s1 (stereo not given)
1.8%,CCOc1ccc(OCCCC(=O)N(C)CC(=O)Nc2ccc(N3CCOCC3)cc2)cc1
-4.4%,NC(=O)C1(N2CCCCC2)CCN(C(=O)CSc2nc3ccccc3o2)CC1
-5.5%,Cc1nn(C(C)C(=O)NCCCN(Cc2ccccc2)C(C)C)c(=O)c2c1sc1ccccc12 (stereo not given)
6.0%,COc1cccc(NC(=O)Nc2ccccc2Br)c1
-18.1%,COC(=O)[C@H](CC(C)C)NC(=O)N1CCCCC1C (stereo not given in full)
6.7%,Cc1cc(C(=O)NNC(=O)c2cccs2)nn1C(C)(C)C
-15.1%,CCN(CC)C(=O)[C@H]1CC(CC(=O)NCCc2ccccn2)C(=O)N2CCc3c([nH]c4ccccc34)[C@]12C (stereo not given in full)
29.9%,COc1cc(-c2nc(SCC(=O)Nc3ccc4c(c3)OCO4)c(-c3ccccc3)[nH]2)cc(OC)c1OC
-5.9%,CC1Cc2ccccc2N1C(=O)CSc1nnc(N)s1 (stereo not given)
0.3%,CCOC(=O)C1CCCN(C(=O)CN2C(=O)c3ccccc3S2(=O)=O)C1 (stereo not given)
-3.7%,CC(=O)Nc1ccc(NC(=O)C2CCCN2C(=O)Nc2ccc(F)cc2)cc1 (stereo not given)
-0.4%,On1nnc2ccccc21
-3.9%,CCOc1ccccc1NC(=O)CSc1nc2ccccc2nc1Cc1ccc(C)cc1
-12.2%,O=C(COc1ccccc1Cl)Nc1ccc(Cl)cn1
2.2%,COc1ccc(NC(=O)n2ncc3cc(Cl)ccc32)cc1OC
-6.8%,COc1cccc(-n2c(SCc3cc(=O)oc4cc(O)c(O)cc34)nc3ccccc3c2=O)c1
0.0%,Cc1nnc(NC(=O)CSc2nnc(C)c(=O)n2N)s1
-2.7%,CC(C)CCN1CCN(CC(c2ccccc2)c2ccccc2)CC1CCO (stereo not given)
-2.4%,O=c1ccc2cc(S(=O)(=O)NCc3ccc(Br)cc3)ccc2[nH]1
79.4µM*,COc1cc(C)c(CC/C(C)=C/C=C/C(C)=O)c(C)c1C
15.9%,CC(C)Nc1nc(NC(C)C)nc(C(=O)OCCO)n1
-0.9%,N#Cc1ccc(OCC(=O)OCC(=O)Nc2sccc2C(N)=O)cc1
10.4%,CC1CCC/C(=N\NC(=O)COc2ccccc2Cl)C1 (stereo not given)
12.3%,Nc1c(C(=O)Nc2ccc3c(c2)OCCO3)nnn1Cc1ccc(Br)cc1
-11.7%,CC(=O)N(NC(=O)c1ccc(C)cc1)C1CC(=O)N(c2ccccc2Cl)C1=O (stereo not given)
1.1%,CCOC(=O)N1CCN(C(=O)CN(c2ccc(OCC)cc2)S(C)(=O)=O)CC1
2.4%,Cc1ccc(NC(=O)Nc2ccc([N+](=O)[O-])cc2)nc1
-3.4%,COCCC(=O)N1CCCC(CNS(=O)(=O)c2ccc(OC)cc2)C1 (stereo not given)
-6.6%,COc1ccc(C(=O)Nc2ccccc2C(=O)N2CCCCC2C)cc1 (stereo not given)
-1.1%,COc1ccc(C2C(C(C)=O)=C(O)C(=O)N2c2nccs2)cc1OC (stereo not given)

# VDR inh: what is marked active above.
VDR inh,compound
79.4µM*,COc1cc(C)c(CC/C(C)=C/C=C/C(C)=O)c(C)c1C

# Four entries picked at random from the list so far:
VDR inh,compound
-1.1%,COc1ccc(C2C(C(C)=O)=C(O)C(=O)N2c2nccs2)cc1OC (stereo not given)
-12.2%,O=C(COc1ccccc1Cl)Nc1ccc(Cl)cn1
12.3%,Nc1c(C(=O)Nc2ccc3c(c2)OCCO3)nnn1Cc1ccc(Br)cc1
-2.7%,CC(C)CCN1CCN(CC(c2ccccc2)c2ccccc2)CC1CCO (stereo not given)

# The main list resumes; the 5 compounds before the break are reprinted first.
VDR inh,compound
1.1%,CCOC(=O)N1CCN(C(=O)CN(c2ccc(OCC)cc2)S(C)(=O)=O)CC1
2.4%,Cc1ccc(NC(=O)Nc2ccc([N+](=O)[O-])cc2)nc1
-3.4%,COCCC(=O)N1CCCC(CNS(=O)(=O)c2ccc(OC)cc2)C1 (stereo not given)
-6.6%,COc1ccc(C(=O)Nc2ccccc2C(=O)N2CCCCC2C)cc1 (stereo not given)
-1.1%,COc1ccc(C2C(C(C)=O)=C(O)C(=O)N2c2nccs2)cc1OC (stereo not given)
-6.7%,COc1cc(OC)c(OC)cc1CN1CCc2ccccc2C1
-11.4%,CCC(=O)NC(=S)Nc1ccc(NC(=O)c2cccnc2)cc1
5.3%,COC(=O)[C@H](Cc1ccccc1)NC(=O)N1CCN(Cc2ccccc2)CC1
-9.3%,COc1ccc(C(C(=O)NCC2CCCO2)N(Cc2ccccc2)C(=O)CNC(=O)c2ccco2)cc1OC (stereo not given)
-14.5%,Cc1ccccc1C(=O)Nc1nnc(S(=O)(=O)N2CCCCC2)s1
4.4%,Cc1ccc(Cl)cc1NC(=O)CSc1nc(C)c(C)c(C)c1C#N
-9.7%,CCC(=O)Nc1ccc(C(=O)Nc2ccc3c(c2)OCO3)cc1
-1.3%,Cc1oc(-c2ccc(Cl)cc2)nc1CN1CCC(C(=O)NCc2ccco2)CC1
-6.3%,CCn1c(=O)n(CC)c2cc(N3CCCC3)c(NC(=O)c3ccccc3Br)cc21
u,Cc1ccc(OCC(=O)NNC(=O)C2CC(=O)N(c3ccc4c(c3)OCCO4)C2)cc1 (stereo not given)
-5.8%,CCCCOc1ccc(C(=O)NCC(=O)N(C)Cc2nc3ccccc3c(=O)[nH]2)cc1
-4.8%,O=C(CCSc1nnc2scc(-c3ccccc3)n12)NCc1ccc2c(c1)OCO2
-0.2%&-3.4%,COc1cc(CNC(=O)CCCCCCC(C)C)ccc1O
6.0%,COCCNS(=O)(=O)c1cc(C(=O)O)ccc1OC
6.4%,CC(Oc1ccc(Cl)cc1Cl)C(=O)Nn1cnnc1 (stereo not given)
10.6%,O=C(O)c1cc(N2C(=O)CCC2=O)ccc1Cl
-17.1%,COc1ccc2oc(=O)c(C(=O)NC3CCCCCC3)cc2c1
-16.7%,CC1=[N+](C)N(c2ccccc2)C(=O)C1N=Cc1ccc(Cl)cc1 (stereo not given)
0.7%,Fc1ccccc1OCCCCCN1CCCC1
7.5%,Cc1ccc2nc(NC(=O)CSc3nccn3Cc3ccc(Cl)cc3)sc2c1
-3.2%,CSc1cccc(NC(=O)CN2C(=O)CCc3cc(S(=O)(=O)N4CCCCC4)ccc32)c1
-10.5%,COC(=O)C1=C(C)N(C)C(=O)NC1c1ccc(C)cc1 (stereo not given)
